Compound activity from PubChem.
Cruzain Triton – qHTS Assay for Promiscuous and Specific Inhibitors of Cruzain (with detergent); Cruzipain (Trypanosoma cruzi), P25779; purified cruzain, Z-FR-AMC fluorescence, 0.01% Triton; Potency, µM, inactives show max response, negative = inhibition, usual class: inhibitors; 200,000 tested, 0.43% active; AID 1478, 2009;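 also: plate controls were neutral wells for no effect and buffer without enzyme for full effect; nearly all actives have a fitted effect of over 40% in size; top concentration of the series not given in the record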
Target sequence (P25779 123-467 limits assumed): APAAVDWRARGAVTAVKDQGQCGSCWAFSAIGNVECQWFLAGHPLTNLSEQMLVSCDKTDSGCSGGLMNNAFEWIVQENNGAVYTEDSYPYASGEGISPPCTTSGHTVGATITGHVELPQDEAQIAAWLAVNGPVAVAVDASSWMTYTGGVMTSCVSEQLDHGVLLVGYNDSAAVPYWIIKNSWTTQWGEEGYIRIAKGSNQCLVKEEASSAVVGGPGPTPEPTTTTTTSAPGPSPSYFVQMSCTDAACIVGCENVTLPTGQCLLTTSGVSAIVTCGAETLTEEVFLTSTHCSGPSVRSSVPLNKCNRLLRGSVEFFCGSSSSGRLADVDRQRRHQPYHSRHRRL
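Sodium acetate buffer (100 mM, pH 5.5) containing 5 mM DTT and 0.01% Triton X-100 hosted 1.5 nM cruzain and test compound for 15 min at room temperature. Cleavage of 2 uM Z-FR-AMC was then tracked by fluorescence.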
Cruzain noTriton – qHTS Assay for Promiscuous and Specific Inhibitors of Cruzain (without detergent); 200,000 tested, 2.3% active; Potency, µM, for inactives: max response, negative = inhibition, actives largely listed as inhibitors; purified cruzain, Z-FR-AMC fluorescence, no detergent; AID 1476, 2009; Cruzipain (Trypanosoma cruzi), P25779;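 also: plate controls were enzyme without inhibitor for no effect and buffer without enzyme for full effect; nearly all actives have a fitted effect of over 40% in size; top concentration of the series not given in the record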
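Purified cruzain at 1.5 nM, pre-incubated 15 min with compound at room temperature in 100 mM sodium acetate pH 5.5, 5 mM DTT, 0.00005% Triton X-100. Reaction started with 2 uM Z-FR-AMC; AMC fluorescence increase over 60 s gives rate.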
2A StopGo – High Throughput Screening for Foot and Mouth Disease Virus Antivirals; human cells with a luciferase reporter of 2A StopGo recoding; control for the full effect not named in the record; Potency, µM (series often up to 57.9 µM), for the others: at the top dose signal change, negative = less light; 410,000 tested, 1.2% active; active = well fitted falling curve with a large enough effect; inconclusive = small, poorly fitted or top-dose-only effect; inactive = no such curve, though single readings can be large or run the other way; tested in HEK293T cells; also: % is scaled to controls: 0 for no effect and ±100 for the full control effect; nearly all actives have a fitted effect of over 45% in size; luciferase light after 4 h
Lassa entry inh – qHTS for Inhibitors of binding or entry into cells for Lassa Virus | Lassa virus pseudotype entry inhibition, cell reporter; control for the full effect not named in the record | Potency, µM (top dose mostly 37.9 µM), without a hit: at the top dose activity change, negative = inhibition, hits mostly inhibitors | 300,000 tested, 1.2% active | AID 540256, 2011; active means well fitted inhibition curve with a large enough effect; inconclusive means small, poorly fitted or top-dose-only effect, or effect the other way; inactive means flat fitted curve, though single readings scatter; tested in HEK293 cells; also: % is scaled to controls: 0 for no effect and ±100 for the full control effect; nearly all actives have a fitted effect of over 50% in size; luciferase read-out
NS1 function inh – qHTS Assay for Inhibitors of Influenza NS1 Protein Function; Potency, µM (highest dose often 46.1 µM), for the others: at the top dose activity, positive = more growth; S. cerevisiae slowed by influenza A NS1, growth recovery by OD600; 270,000 tested, 0.4% active; AID 2326, 2010; active means well fitted rising curve with a large enough effect; inconclusive means small, poorly fitted or top-dose-only effect; inactive means no such curve, though single readings can be large or run the other way; also: nearly all actives have a fitted effect of over 50% in size
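A cell-based growth assay was used: compounds that relieve NS1-induced slow growth of budding yeast raise OD600. Assay medium was yeast nitrogen base with ammonium sulphate and -URA supplement, pH 6.0, with 2% galactose.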
SARS PLP yeast – qHTS of Yeast-based Assay for SARS-CoV PLP; S. cerevisiae expressing SARS-CoV PLpro, growth rescue; control for the full effect not named in the record; 330,000 tested, 0.19% active; Potency, µM (titrated, usually from 32.9 µM), inactives show top-dose activity, positive = growth rescue; active means well fitted rising curve with a large enough effect; inconclusive means small, poorly fitted or top-dose-only effect; inactive means no such curve, though single readings can be large or run the other way; also: 0% is about no effect; nearly all actives have a fitted effect of over 55% in size; growth read by luminescence after 48 h
Marburg entry inh – qHTS for inhibitors of binding or entry into cells for Marburg Virus. Marburg virus pseudotyped entry inhibition, cell reporter; control for the full effect not named in the record; about a third of the inactives were read at about 46 µM. Potency, µM (highest dose often 37.8 µM), for the others: at the highest dose activity change, negative = inhibition, most hits filed as inhibitors. 300,000 tested, 1.8% active. AID 540276, 2011; active = well fitted inhibition curve with a large enough effect; inconclusive = small, poorly fitted or top-dose-only effect, or effect the other way; inactive = flat fitted curve, though single readings scatter; tested in HEK293 cells; about a fifth of its hits are not listed in these tables; also: % is scaled to controls: 0 for no effect and ±100 for the full control effect; luciferase read-out
RE007 growth inh – qHTS Assay for Inhibitors of the HIV-1 protein Vpr; S. pombe RE007 Vpr strain, BacTiter-Glo ATP luminescence, 24 h; control for the full effect not named in the record; Potency, µM (top dose mostly 92.2 µM), for inactives: top-dose activity change, negative = less growth; 360,000 tested, 0.21% active; AID 651644, 2012; active = well fitted falling curve with a large enough effect; inconclusive = small, poorly fitted or top-dose-only effect; inactive = no such curve, though single readings can be large or run the other way;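 also: % is scaled to controls: 0 for no effect and ±100 for the full control effect; nearly all actives have a fitted effect of over 50% in size; the assay follows cell death caused by Vpr and the record does not say whether a fall means rescue or toxicity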
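Fission yeast RE007 carrying one integrated HIV-1 vpr copy, seeded at OD 0.01 in PMG+AL medium with 23 nL pinned compound. Grown 24 h at 30 degrees; viability read by BacTiter-Glo luminescence after 5 min.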
Starred values were filed as active, the others as inactive; ? = inconclusive; · = not tested or not shown; & = joins results of further samples; [ ] = another dose, or the depositor's remark. Unless noted, calls follow the shape of the dose curve; as a rule, active = well fitted curve in the direction sought with a large enough effect; inconclusive = small, poorly fitted or top-dose-only effect, or another doubt; inactive = no such curve, though single readings can be large; an effect the other way counts as inactive or inconclusive. Potency is read from the fitted curve at half-maximal effect.

SMILES	Cruzain Triton	Cruzain noTriton	2A StopGo	Lassa entry inh	NS1 function inh	SARS PLP yeast	Marburg entry inh	RE007 growth inh
O=C(O)C1C2C=CC(C2)C1C(=O)N1CCOCC1 (stereo not drawn)	-2.1%	1%	·	0%	-4%	-1%	4%	-8%
Oc1ccc(Cn2cc[nH]c2=S)cc1	1.8%	5%	·	-10%	0%	·	?	·
Cc1noc(C)c1COC(=O)C1CCN(S(=O)(=O)c2ccc(F)cc2)CC1	·	·	-8%	9%	·	1%	20%	2%
O=C(NC1CCCC1)c1ccccc1OCc1ccccc1	·	·	?	-4%	·	0%	-26%	4%
O=C(O)CC/C(=N\Nc1ccc(S(=O)(=O)N2CCCC2)cc1[N+](=O)[O-])c1cccs1	-4.5%	30%	-17%	-12%	8%	-6%	?	-3%
O=C1N=c2ccc([N+](=O)[O-])cc2=C1c1sc(=O)[nH]c1O	·	·	-30%	21%[46.1 µM]	6%	4%	-4%[46.1 µM]	-3%
O=C(CN1N=C(c2ccc(Cl)cc2)CCC1=O)NCCc1ccc(Cl)cc1	-0.1%	?	-10%	-16%[46.1 µM]	·	·	·	·
O=C(Nc1cc2c(cc1C(=O)c1ccc(Br)cc1)OCCO2)c1ccc(Cl)cc1	-1.7%	-3%	?	-13%[46.1 µM]	·	·	·	·
CCC1CCCCN1Cc1nc2c(c(=O)n(C)c(=O)n2C)n1CCCc1ccccc1 (stereo not drawn)	1.5%	-4%	-4%	·	-9%	-4%	·	4%
COCCN1Cc2cccc(C(=O)Nc3ccccc3OC)c2C1=O	-1.5%	-2%	-19%	4%	-21%	1%	7%	4%
COc1ccc(CN2CCC(Cc3ccccc3)CC2)cc1OC	·	·	-7%	·	-11%	0%	·	?
Cn1nc(C(=O)Nc2nc3ccccc3[nH]2)c2ccccc2c1=O	-4.8%	1%	42%[activator]	20%	7%	-1%	-19%	4%
COc1ccc(NC(=O)CSc2n[nH]c(C(C)C)n2)c([N+](=O)[O-])c1	·	·	0%	?	·	-1%	?	-4%
Cc1cc2cc3c(C)cc(=O)oc3c(C)c2o1	2.1%&-1.4%	3%&-7%	12%&8%	·	-4%	-3%	-4%	3%
CCC(=O)N(CCc1ccc(OC)c(OC)c1)Cc1cc2ccc(C)cc2n2nnnc12	·	·	-8%	4%	-3%	0%	2%[46.1 µM]	4%
COC(=O)c1ccc(C(=O)OC)c(NC(=O)CSCc2ccccc2Br)c1	-4.8%	-3%	0%	-1%	4%	4%	19%	6%
CC(=O)C1CCC2C3CCC4CC(O)CCC4(C)C3C(=O)CC12C (stereo not drawn)	·	·	-9%	2%	·	·	-26%	-11%
Cc1n[nH]c(C)c1Sc1ccccc1N=Cc1cc(Cl)cc([N+](=O)[O-])c1O	4.4%	1%	?	?	-56%	-3%	-12%	-7%
COc1ccccc1-n1cnnc1SCc1csc(-c2ccccc2)n1	-2.8%	-3%	-22%	-11%	-13%	-11%	?	-9%
Cc1nn(CCCC(=O)NCc2cccc(F)c2)c(=O)c2nn(-c3ccccc3)c(C)c12	-1.3%	-4%	-16%	-14%[46.1 µM]	·	·	·	·
CCCCCCC(=O)N(O)C1CC(=O)N(Cc2ccccc2)C1=O (stereo not drawn)	-4.0%	?	?	?	-31%	-22%	?	-9%
CN(C)S(=O)(=O)c1ccc(C(=O)NC2CCCc3ccccc32)cc1 (stereo not drawn)	·	·	8%	0%	·	-3%	0%[46.1 µM]	-22%
Cc1ccc(CSC2=Nc3ccccc3C3=NC(CCC(=O)NCc4ccco4)C(=O)N23)cc1 (stereo not drawn)	-7.1%	?	26%	15%	3%	-7%	11%&11%	-7%
COc1ccc(-c2nc(SCC(=O)NCc3ccco3)c(-c3ccccc3)[nH]2)cc1OC	-6.2%	1%	-19%	-34%	-34%	-5%	-25%	21%
Cc1ccccc1OCC(=O)N/N=C/c1ccc(N(C)C)cc1	·	·	8%	-16%[46.1 µM]	·	-4%	?	12%
CC(Sc1nnc(-c2ccco2)n1N)C(=O)NCc1ccc2c(c1)OCO2 (stereo not drawn)	·	·	-5%	0%	·	1%	13%	-17%
O=C(O)COc1ccccc1/C=N/NC(=O)CSc1nc2ccccc2n1Cc1ccccc1	·	·	27%	6%	9%	0%	2%[46.1 µM]	-30%
Cc1ccc(S(=O)(=O)N(Cc2cccc(C)c2)C(=O)N2CCN(C)CC2)cc1	·	·	-10%	40%	·	-2%	2%	5%
COC(=O)c1ccc(/C=N/Nc2nc(C)c(C)s2)cc1	·	·	33%[activator]	?	-41%	18%	?	-20%
COc1ccc(OC)c(NC(=O)C2=C(C)NC(=O)NC2c2cccs2)c1 (stereo not drawn)	·	·	7%	-1%	·	1%	0%[46.1 µM]	7%
COc1ccc(NC(=S)NCCCN2CCOCC2)cc1	·	·	-2%	-2%	-2%	1%	7%	19%
O=C(CCc1nnc2ccc(NCc3ccccc3)nn12)NC1CCCC1	·	·	-3%	2%[46.1 µM]	-5%	?	-11%[46.1 µM]	-2%
CCOC(=O)CSc1nc(N)nc(C)c1Br	-0.2%	-9%	-7%	16%	-4%	-1%	13%[46.1 µM]	-1%
COC1CCN(C(=O)c2cc(COc3ccc(-n4cncn4)cc3)on2)CC1	·	·	-8%	·	-12%	-3%	·	4%
Cn1nc(C(=O)NCC(c2cccs2)N2CCOCC2)c2ccccc2c1=O (stereo not drawn)	·	·	-20%	?	·	0%	-3%[46.1 µM]	3%
O=C(Nc1ccccc1)/C(=C\c1ccc(F)cc1)NC(=O)c1ccco1	·	·	10%	-19%[46.1 µM]	7%	-2%	-18%[46.1 µM]	-7%
COc1ccc2c(c1)[nH]c1c(N3CCN(Cc4ccc5c(c4)OCO5)CC3)ncnc12	-9.3%	-3%	6.3µM*	?	-9%	-2%	?	8%
CC1=C(C(=O)OCc2ccc([N+](=O)[O-])cc2)N2C(=O)C(NC(=O)Cc3ccccc3)C2SC1 (stereo not drawn)	·	·	-11%	·	0%	3%	·	2%
Cn1cnnc1SC1CCCCC1NS(=O)(=O)c1ccc(Cl)cc1 (stereo not drawn)	-5.3%	-7%	·	-2%	-8%	-5%	?	-1%
COc1cc(C2Nc3ccccc3C(=O)N2c2ccccc2)ccc1O (stereo not drawn)	0.4%	18%	41%[activator]	18%	-14%	-6%	?	-4%
COCCCNC(=O)COc1ccc(S(=O)(=O)NCc2ccccc2)cc1Cl	-6.1%	15%	26%	-14%	-5%	14%	4%	15%
Cc1cc(C)c2nc(-c3ccccn3)cc(C(=O)NCCc3ccc(S(N)(=O)=O)cc3)c2c1	·	·	14%	-1%[46.1 µM]	·	0%	-15%[46.1 µM]	14%
CCC(CC)NC(=O)COC(=O)c1ccc2c(c1)C(=O)N(Cc1ccco1)C2=O	·	·	-14%	31%	0%	7%	3%[46.1 µM]	-2%
CCc1nc(SCC(=O)NCCc2ccc(OC)c(OC)c2)c2c(=O)n(C)c(=O)n(C)c2n1	-1.9%	-6%	-3%	·	-1%	1%	·	-6%
CC(C)(C)[C@H]1C=C(C(=O)N2CCN(Cc3ccc4c(c3)OCO4)CC2)O[C@@H](OCCCCO)C1	·	·	-13%	·	2%	1%	·	68%
Cc1ccc(C)c(-c2nnc(NC(=O)CCS(=O)(=O)c3ccc(F)cc3)o2)c1	·	·	-17%	19%	·	-1%	4%	16%
O=S(=O)(c1cccc2nonc12)N1CCCCCC1	·	·	2%	18%	-3%	-1%	-14%	-4%
O=c1c2cc(-c3ccccc3)sc2nc2n1N=C(c1ccccc1)CS2	·	·	12%	30%[46.1 µM]	-1%	0%	?	-10%
O=C(O)C1C2C=CC(C2)C1C(=O)N1CCN(C/C=C/c2ccccc2)CC1 (stereo not drawn)	3.4%	3%	-18%	-12%	-3%	-2%	32%	4%
COc1ccc(C(c2nnnn2CCc2ccccc2)N2CCN(C)CC2)cc1OC (stereo not drawn)	0.9%	-1%	3%	8%	-3%	-5%	-8%	9%
Carrying on.
SMILES	Cruzain Triton	Cruzain noTriton	2A StopGo	Lassa entry inh	NS1 function inh	SARS PLP yeast	Marburg entry inh	RE007 growth inh
CC(C)C(=O)N=C1NC(=O)CS1	-2.3%	-3%	11%	-17%	?	-18%	13%	-8%
CN(C)c1cc(NC(=O)CN2CCCC2)c2ccccc2n1	·	·	-10%	6%[46.1 µM]	-1%	1%	10µM*	-13%
Nn1c(SCC(=O)Nc2ccc3c(c2)OCCO3)nnc(CCC(=O)O)c1=O	·	·	-7%	·	0%	1%	·	0%
COCCCNC(=O)Cn1nc(-c2ccccc2OC)ccc1=O	6.2%	0%	-5%	-1%	7%	2%	?	4%
COc1ccc(-c2nc(CS(=O)CC(=O)NC3CCCC3)c(C)o2)cc1 (stereo not drawn)	·	·	11%	0%[46.1 µM]	13%	-5%	-7%[46.1 µM]	1%
CCC(=O)NC(=S)Nc1ccc(-c2nc3ccccc3s2)cc1	6.4%	-25%	3%	-17%	2%	1%	-22%[46.1 µM]	-15%
CN=c1c([N+](=O)[O-])nn(-c2ccc3c(c2)OCCO3)n1O	·	·	6%	·	17%	-4%	·	-4%
COC(=O)c1ccc(OC)c(CSc2nnc(COc3ccc(Cl)cc3)o2)c1	3.2%	4%	1%	?	-38%	-11%	?	-2%
Cc1cc2nnc(SCc3ccc4c(c3)OCO4)n2c2ccccc12	·	·	-10%	-1%	·	·	1%[46.1 µM]	-1%
COc1ccc(Cc2nnc(NC(=O)c3cc(OC)cc(OC)c3)s2)cc1	·	·	-13%	·	7%	-4%	·	-3%

This is a random part of the collection; any-hit rate near 4.6%.
